Screening data from PubChem.
DUX4 txn inh: inhibitors of DUX4-driven ZSCAN4 reporter expression, primary screen, 293T cells, Gaussia and Italica luciferase | 293T-iDUX4 ZSCAN4-Gaussia luciferase reporter, 24 h; active compounds read low | 37,000 compounds, 0.8% hits | activity change, negative = inhibition, % (test concentration not listed);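 active means -10% or lower and over 25 points stronger than a control reporter; inconclusive means -10% or lower with a smaller gap; inactive means above -10%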;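 further: 0% = median of neutral control wells and -100% = median of positive control wells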
DUX4 txn inh difference: second read-out of DUX4 txn inh, no call of its own (marks repeat the call); Gaussia minus Italica difference, %; measured here: selective DUX4 reporter inhibition;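 worked out from the two reporters; negative = selective loss of the DUX4 reporter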
DUX4 txn inh control: recorded beside DUX4 txn inh, whose call it bears; activity change, negative = inhibition, %; measured here: Italica tet-on control reporter;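 0 = neutral control and -100 = positive control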
* = called active by the depositor; ? = inconclusive; . = not tested or not shown; & = joins results of further samples; ! = repeats disagree. The list is partial (hit frequency here may not be typical).

SMILES	DUX4 txn inh	DUX4 txn inh difference	DUX4 txn inh control
CN(C)CC(=O)Nc1ccc2c(c1)[C@@H]1C[C@@H](CC(=O)NC3CCCCC3)O[C@H](CO)[C@@H]1O2	5	3	2.0
O=S(=O)(Cc1ccccc1)NCC[C@@H]1CC[C@H](NS(=O)(=O)c2ccc(F)cc2)[C@H](CO)O1	0	-2	1.5
C[C@@H]1CN([C@@H](C)CO)C(=O)CCCn2cc(nn2)CO[C@@H]1CN(C)S(C)(=O)=O	1	6	-5.0
C[C@H](CO)N1C[C@H](C)[C@@H](CN(C)C(=O)C2CCCCC2)Oc2cc(C#C[C@@H](C)O)ccc2S1(=O)=O	1	0	0.6
COc1ccc(-c2ccc([C@@H]3[C@@H](C#N)N(C(=O)c4cccnc4)[C@H]3CO)cc2)cc1	4	2	2.0
CC=Cc1ccc2n(c1=O)C[C@@H]1[C@@H](CO)[C@H](C(=O)NCCC)[C@H]2N1CC1CC1 (mixture of isomers)	2	-3	4.4
C[C@@H]1CCCCO[C@H](CN(C)C(=O)C2CCCCC2)[C@H](C)CN([C@@H](C)CO)C(=O)c2cc(N(C)C)ccc2O1	1	-2	2.3
CN(C)C(=O)c1ccc(-c2ccc(C3[C@@H]4CN(Cc5cncnc5)C[C@H]3N4)cc2)cc1 (stereo partly specified)	17&4	7&6	10&-1.9
C[C@H]1CN([C@@H](C)CO)C(=O)CCCn2cc(nn2)CO[C@@H]1CN(C)CC1CCCCC1	-1	1	-1.7
CCNC(=O)[C@H]1[C@H](CO)[C@H]2Cn3c(ccc(C4=CCCCC4)c3=O)[C@@H]1N2Cc1ccncc1	-5	-10	5.1
CC(C)(O)C#Cc1ccc([C@@H]2[C@@H](CO)N3CCCCN(C(=O)c4cccnc4)C[C@H]23)cc1	1	-6	7.0
O=C(c1ccccn1)N1CC[C@@H]2[C@H](CO)Nc3ccc(Br)cc3[C@@H]21	16	17	-0.4
OC[C@H]1[C@@H](c2ccc(-c3cccc(F)c3)cc2)[C@@H]2CN(CCC(F)(F)F)CCCCN12	?	.	.
CCCNC(=O)N[C@H]1CC[C@H](CC(=O)N2CCN(C)CC2)O[C@H]1CO	1	-5	5.5
CCN1[C@@H]2c3ccc(-c4ccccc4)c(=O)n3C[C@H]1[C@H](CO)[C@H]2C(=O)NC1CCC1	-4	-5	1.1
COCC#Cc1ccc([C@@H]2[C@H]3CN(C(=O)NC4CCCC4)CCCCN3[C@H]2CO)cc1	-3	3	-6.6
CO[C@H]1CN(C)C(=O)c2ccc(NC(C)=O)cc2OC[C@@H](C)N(C(=O)c2ccccc2)C[C@@H]1C	2	4	-2.1
Cc1ccc(CN2CC(=O)N3[C@H](CO)[C@@H](c4ccc(Br)cc4)[C@H]3C2)cc1	6	-3	8.8
CN(C)C(=O)[C@H]1[C@H](CO)[C@H]2Cn3c(cccc3=O)[C@@H]1N2C(=O)c1ccccc1	-3	-7	3.3
C[C@@H]1CN([C@H](C)CO)C(=O)c2cccc(NC(=O)c3ccncc3)c2O[C@H]1CN(C)S(=O)(=O)c1ccccc1	-1	-2	0.8
Cc1noc(C)c1NC(=O)N(C)C[C@@H]1OCCCC[C@@H](C)Oc2ccc(NC(=O)c3ccncc3)cc2C(=O)N([C@H](C)CO)C[C@@H]1C	3	-3	5.7
Cc1noc(C)c1NC(=O)N[C@H]1CC[C@@H](CC(=O)N2CCN(C)CC2)O[C@@H]1CO	1	-2	3.7
COc1cccc(-c2ccc([C@@H]3[C@H]4CN(C(=O)NC(C)C)CCCCN4[C@H]3CO)cc2)c1	0	8	-7.4
C[C@@H]1CN([C@@H](C)CO)C(=O)c2ccccc2-c2ccccc2CO[C@H]1CN(C)S(=O)(=O)c1cccc(F)c1	9	-6	15
Cc1noc(C)c1NC(=O)Nc1ccc2c(c1)C(=O)N([C@@H](C)CO)C[C@@H](C)[C@H](CN(C)S(=O)(=O)c1ccc(F)cc1)O2	1	2	-0.5

Arranged by the number under DUX4 txn inh control (rising): some entries from above.
Structure | DUX4 txn inh control
O=C(c1ccccn1)N1CC[C@@H]2[C@H](CO)Nc3ccc(Br)cc3[C@@H]21 | -0.4
CCNC(=O)[C@H]1[C@H](CO)[C@H]2Cn3c(ccc(C4=CCCCC4)c3=O)[C@@H]1N2Cc1ccncc1 | 5.1
Cc1ccc(CN2CC(=O)N3[C@H](CO)[C@@H](c4ccc(Br)cc4)[C@H]3C2)cc1 | 8.8

Remaining list, next part:
SMILES	DUX4 txn inh	DUX4 txn inh difference	DUX4 txn inh control
COCC(=O)N1CCC2(CC1)CN(Cc1cccc(Cl)c1)[C@@H](CO)c1[nH]c3cc(OC)ccc3c12	6	0	6.3
CN(C)C(=O)c1ccc(-c2ccc([C@H]3[C@@H](C#N)N(C(=O)Cc4ccccn4)[C@H]3CO)cc2)cc1	0	1	-1.1
CN(C)C(=O)C[C@H]1C=C[C@@H](NC(=O)Nc2cccc(F)c2)[C@@H](CO)O1	1	1	0.1
CO[C@H]1CN(C)C(=O)c2ccc(NS(=O)(=O)CC(F)(F)F)cc2OC[C@H](C)N(C(=O)NC(C)C)C[C@H]1C	2	0	2.4
CN1C(=O)c2cc(NC(=O)C3CCOCC3)ccc2OC[C@@H]2O[C@@H](CC(=O)NC3CCCC3)CC[C@H]21	-1	-4	2.9
Cc1noc(C)c1NC(=O)Nc1ccc2c(c1)C(=O)N([C@H](C)CO)C[C@@H](C)[C@@H](CN(C)S(=O)(=O)c1cn(C)cn1)OCCCC[C@H](C)O2	-3	-4	1.5
Cc1ccccc1S(=O)(=O)N1C[C@@H]2N[C@H](C1)C2c1ccc(-c2cccc(C#N)c2)cc1 (stereo partly specified)	-71*!	-30*	-41*
COCC#Cc1ccc([C@@H]2[C@@H](CO)N3C(=O)CN(C(=O)c4ccncc4)C[C@@H]23)cc1	8	-3	11
CN(C)CC#Cc1ccc([C@@H]2[C@@H](CO)N3C(=O)CN(C(=O)Cc4ccccc4)C[C@H]23)cc1	17	2	15
C[C@@H]1CN([C@H](C)CO)C(=O)CCCn2cc(nn2)CO[C@@H]1CN(C)S(=O)(=O)c1ccc(Cl)cc1	-6	-6	0.3
O=C(C[C@H]1CC[C@@H]2[C@H](COC[C@@H](O)CN2Cc2ccccc2)O1)NCCCN1CCOCC1	14	7	7.3
O=C(c1cccnc1)N1CC2(C1)[C@@H](c1ccccc1)[C@@H](CO)N2C(=O)CC1CC1	8	2	6.5
CC(C)CC#Cc1ccc([C@H]2[C@@H](CO)N3C(=O)CN(C(=O)c4cccc(F)c4)C[C@H]23)cc1	3	1	2.1
Cc1ccc(-c2ccc3c(c2)O[C@@H](CN(C)Cc2ccccn2)[C@H](C)CN([C@H](C)CO)S3(=O)=O)cc1	-5	-10	4.8
CCCC(=O)N1CC2(C1)CN(S(=O)(=O)c1ccc(C)cc1)[C@@H](CO)c1[nH]c3cc(OC)ccc3c12	4	-11	15
O=C(C[C@@H]1C[C@H]2c3cc(NC(=O)CC4CC4)ccc3O[C@H]2[C@@H](CO)O1)NCc1ccc(Cl)cc1	3	-2	5.4
C/C=C/c1cccc(-c2nc(C(=O)NC3CCC3)cc3c2[C@@H](CCO)N([S@](=O)C(C)(C)C)C3)c1	-6	-8	2.7
CO[C@H]1CN(C)C(=O)c2cc(NC(=O)C3CCOCC3)ccc2OC[C@H](C)N(C(C)=O)C[C@@H]1C	2	1	0.1
C[C@H]1CN([C@@H](C)CO)C(=O)c2c(c3ccccc3n2C)-c2ccccc2CO[C@H]1CN(C)C(=O)Nc1ccnc(N2CCOCC2)c1	-7	-3	-4.9
Cc1ccc(S(=O)(=O)Nc2cccc3c2O[C@H](CN(C)S(=O)(=O)c2ccc(C)cc2)[C@H](C)CN([C@@H](C)CO)C3=O)cc1	-1	0	-0.5
COCC#Cc1ccc2c(c1)O[C@H](CN(C)S(=O)(=O)c1ccc(OC)cc1)[C@H](C)CN([C@@H](C)CO)S2(=O)=O	-1	-4	2.1
C[C@H](CO)N1C[C@H](C)[C@@H](CN(C)CC2CCOCC2)Oc2cc(C3=CCCC3)ccc2S1(=O)=O	1	1	0.0
CCN1[C@@H]2Cn3c(ccc(-c4ccc(F)cc4)c3=O)[C@H]1[C@@H](C(=O)Nc1nccs1)[C@@H]2CO	-5	-4	-0.7
C[C@@H](O)C#Cc1ccc([C@H]2[C@H](CO)N3CCCCN(C(=O)c4ccc5c(c4)OCO5)C[C@@H]23)cc1	5	2	2.3
CCCC(=O)Nc1ccc2c(c1)C(=O)N(C)[C@H]1CC[C@H](CC(=O)NC3CCCC3)O[C@H]1CO2	1	-2	3.5
Continuation.
SMILES	DUX4 txn inh	DUX4 txn inh difference	DUX4 txn inh control
CN1c2ccc(-c3ccccc3)cc2[C@@H]2[C@@H](CCN2S(=O)(=O)c2ccccc2F)[C@H]1CO	19	2	16
CCCC#Cc1ccc([C@@H]2[C@@H](C#N)N(C(=O)C3CCOCC3)[C@H]2CO)cc1	1	1	-0.3
O=C(CN1CCOCC1)N1CCCCN2[C@H](CO)[C@H](c3ccc(C#Cc4ccccc4F)cc3)[C@@H]2C1	?	.	.
C[C@H](CO)N1C[C@H](C)[C@H](CN(C)C(=O)c2ccccc2F)Oc2ncc(-c3cccnc3)cc2C1=O	-3	-5	1.9
O=C(C1CC1)N1CCCCN2[C@H](CO)[C@@H](c3ccc(C#CC4CCCC4)cc3)[C@H]2C1	0	12	-12
CC(C)NC(=O)N(C)C[C@H]1OCCCC[C@H](C)Oc2ccc(NS(C)(=O)=O)cc2C(=O)N([C@@H](C)CO)C[C@@H]1C	-3	-2	-1.0
CS(=O)(=O)N1[C@H](C(=O)O)[C@@H](CO)[C@@H]2Cn3c(ccc(-c4ccc(F)cc4)c3=O)[C@@H]21	7	8	-1.1
O=C(C1CC1)N1CC2(C1)[C@H](c1ccccc1)[C@H](CO)N2Cc1ccccc1F	0	-8	8.8
CCCC#Cc1ccc([C@@H]2[C@H](C#N)N(C(=O)C3CCC3)[C@H]2CO)cc1	1	5	-3.3
COc1ccc(S(=O)(=O)N2CC[C@@H]3[C@H]2c2cc(C#Cc4ccccc4OC)ccc2N[C@@H]3CO)cc1	1	-8	8.7
CC(C)NC(=O)N(C)C[C@@H]1Oc2ccc(NS(=O)(=O)c3ccc(Cl)cc3)cc2C(=O)N([C@H](C)CO)C[C@@H]1C	2	3	-0.6
COc1ccc(S(=O)(=O)N(C)C[C@@H]2OCc3ccccc3-c3ccccc3C(=O)N([C@H](C)CO)C[C@H]2C)cc1	4	3	1.6
COCC(=O)N[C@H]1C=C[C@@H](CC(=O)N2CCCCC2)O[C@H]1CO	3	1	2.5
O=C(C1CCC1)N1CCCCN2[C@H](CO)[C@@H](c3ccc(C#CC4(O)CCCC4)cc3)[C@@H]2C1	-5	-2	-2.7
N#C[C@H]1[C@H](c2ccc(C#Cc3ccc(F)cc3)cc2)[C@H](CO)N1C(=O)C1CCC1	3	1	1.7
COC(=O)C[C@@H]1CC[C@@H]2[C@H](COc3ccc(NS(=O)(=O)c4ccc(C)cc4)cc3C(=O)N2C)O1	2	4	-2.2
C/C=C/c1ccc([C@H]2[C@@H](CO)N(C(=O)CC)[C@H]2CN(C)S(C)(=O)=O)cc1	-3	0	-3.2
C/C=C/c1ccccc1[C@H]1[C@@H](C#N)N(c2nc(CC)cs2)[C@H]1CO	?	.	.
COCC(=O)N1[C@@H](CO)[C@@H](c2ccc(-c3ccccc3)cc2)C12CN(C(C)=O)C2	3	-2	4.3
COc1cccc(S(=O)(=O)N2C[C@@H](O)COC[C@H]3O[C@H](CC(=O)N4CCOCC4)CC[C@@H]32)c1	18	4	14
COc1ccc(S(=O)(=O)N(C)C[C@@H]2Oc3cc(-c4ccccc4OC)ccc3S(=O)(=O)N([C@H](C)CO)C[C@H]2C)cc1	-5	-1	-4.0
COc1ccccc1-c1ccc([C@@H]2[C@H](CO)N(C(C)=O)C23CN(C(C)=O)C3)cc1	9	2	7.0
C[C@@H]1CN([C@H](C)CO)S(=O)(=O)c2ccc(/C=C/c3ccccc3)cc2O[C@@H]1CN(C)C(=O)NC1CCCCC1	-2	0	-2.8
O=C(C[C@H]1C[C@@H]2c3cc(NC(=O)CC4CC4)ccc3O[C@@H]2[C@@H](CO)O1)NCC(F)(F)F	12	3	8.2
CNC[C@H]1Oc2ncc(C#Cc3ccccc3F)cc2C(=O)N([C@H](C)CO)C[C@H]1C	-3	-2	-1.0
O=C(C[C@@H]1C=C[C@@H](NS(=O)(=O)c2ccccc2)[C@H](CO)O1)NCCN1CCCCC1	4	-3	6.2
COCC(=O)Nc1ccc2c(c1)C(=O)N(C)[C@@H]1CC[C@@H](CC(=O)O)O[C@@H]1CO2	-3	-3	-0.1
Cc1ccc(S(=O)(=O)N(C)C[C@H]2Oc3ccc(NC(=O)CCCN(C)C)cc3C(=O)N([C@H](C)CO)C[C@H]2C)cc1	9	3	6.0

Part of the list above, reduced to DUX4 txn inh control and DUX4 txn inh.
| Structure | DUX4 txn inh control | DUX4 txn inh |
| --- | --- | --- |
| O=C(C1CC1)N1CCCCN2[C@H](CO)[C@@H](c3ccc(C#CC4CCCC4)cc3)[C@H]2C1 | -12 | 0 |
| CC(C)NC(=O)N(C)C[C@H]1OCCCC[C@H](C)Oc2ccc(NS(C)(=O)=O)cc2C(=O)N([C@@H](C)CO)C[C@@H]1C | -1.0 | -3 |
| CS(=O)(=O)N1[C@H](C(=O)O)[C@@H](CO)[C@@H]2Cn3c(ccc(-c4ccc(F)cc4)c3=O)[C@@H]21 | -1.1 | 7 |
